# High-throughput results (PubChem)
# Rango complex inh: Rango-importin beta binding inhibition | 340,000 tested, 0.031% active | Rango CFP/YFP FRET sensor + importin beta, 45 min | AID 540263 | Potency, µM (titrated, usually from 92.2 µM), inactives show top-dose inhibition of complex formation; active = rising FRET ratio curve, often small or poorly fitted; inconclusive = mostly compound fluorescence or quenching in the first reads; inactive = flat curves in all reads;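 note: potency is the fitted concentration of half-maximal effect; 0% = DMSO wells and 100% = buffer wells lacking importin beta; nearly all actives have a fitted effect of over 15% in size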
#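 Inhibition scored from the CFP 486 nm/YFP 530 nm FRET ratio 45 min after adding 0.125 microM importin beta to 50 nM Rango biosensor preincubated 5 min with compound (room temperature, PBS with DTT, Tween-20, BSA). No-importin wells as positive control.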
# Rango release inh: inhibitors of RanGTP-induced Rango-importin beta complex dissociation | O95149+P62826 | AID 540253 | 340,000 tested, 0.071% active | Potency, µM (doses to about 46.1 µM), inactives show top-dose activity change, negative = inhibition | Biochemical FRET Rango-importin beta, RanGTP-induced dissociation; active means falling FRET ratio curve, often poorly fitted, with flat reads before Ran was added; inconclusive means other falling curves, or compound fluorescence or quenching; inactive means flat or rising ratio curve;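 note: potency is the fitted concentration of half-maximal effect; % of control where 0% means no effect; nearly all actives have a fitted effect of over 45% in size; -100% = wells without RanGTP and RCC1; the record marks most hits as doubtful in a second field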
#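 Rango FRET biosensor (snurportin-1 IBB flanked by N-terminal EYFP and C-terminal CFP10) at 0.1 uM, with 0.25 uM importin beta in PBS, 1mM DTT, 0.02% Tween-20, 0.1% BSA. 0.6 uM Ran, 2mM GTP and 0.2 uM RCC1 were then added for 45 min at room temperature. Inhibition read as loss of FRET rise.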
# GLA inh pH 4.5: alpha-galactosidase A (human) inhibition, pH 4.5; P06280; purified enzyme, 4-MU-alpha-Gal fluorescence, pH 4.5; activity change, negative = inhibition, % at 105 µM; 230,000 tested, under 10 active; AID 1467; inconclusive = small, poorly fitted or top-dose-only inhibition, or a rising curve; inactive = flat fitted curve, though single readings scatter; no compound was filed as active;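 note: 0% = full activity with enzyme and -100% = basal without enzyme; dose as in the result columns while the protocol names 77 µM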
# Target sequence (P06280 whole entry, looked up): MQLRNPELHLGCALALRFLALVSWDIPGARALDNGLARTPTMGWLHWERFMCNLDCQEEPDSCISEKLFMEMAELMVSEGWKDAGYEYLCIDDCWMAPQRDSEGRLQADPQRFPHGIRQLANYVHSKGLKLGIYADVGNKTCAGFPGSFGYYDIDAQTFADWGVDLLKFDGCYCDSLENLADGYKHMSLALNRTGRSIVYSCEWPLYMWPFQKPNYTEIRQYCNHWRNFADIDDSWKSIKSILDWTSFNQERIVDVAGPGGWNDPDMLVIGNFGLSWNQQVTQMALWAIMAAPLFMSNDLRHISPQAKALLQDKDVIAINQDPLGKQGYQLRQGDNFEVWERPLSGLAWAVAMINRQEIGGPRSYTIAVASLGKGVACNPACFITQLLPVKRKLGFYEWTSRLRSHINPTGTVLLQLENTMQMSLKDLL
# miR-21 FLuc: miR-21 reporter, rising signal; HeLa miR-21 FLuc reporter, luciferase, 48 h; Potency, µM (highest dose often 38.3 µM), for the others: at the highest dose reporter change, positive = more light; 340,000 tested, under 10 active; active = well fitted rising curve with a large enough effect; inconclusive = small, poorly fitted or top-dose-only effect; inactive = no such curve, though single readings can be large or run the other way;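 note: % of control where 0% means no effect; miR-21 action dims this reporter so a rising signal means less miR-21 action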
#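 HeLa miR-21-FLuc reporter line, endogenous miR-21; 2000 cells/well in DMEM/10% FBS; compound titration up to ~40uM final, 48 h, 37 degree Celsius; luciferase detection reagent, 15 min lysis, CCD luminescence.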
# * = called active by the depositor; ? = inconclusive; / = not tested or not shown; & = joins results of further samples; [ ] = dose if it differs, or a comment. The list is partial, so the mix of outcomes need not match the whole.
SMILES,Rango complex inh,Rango release inh,GLA inh pH 4.5,miR-21 FLuc
COc1ccc2c(c1OC)C(=O)N1C2SC(C)(C)[C@H]1C(=O)NC1CCCC1 (stereo partly specified),0.4%,3%,/,-2%
COc1ccccc1N1CCN(C(=O)C(=O)c2cn(CC(=O)N3CCCCCC3)c3ccccc23)CC1,-0.3%,-6%,/,16%
CN1CCN(NC(=O)Nc2ccc(F)cc2)CC1,-4.5%,6%,/,0%
Cc1cc(NC(=O)C23CCC(C)(C(=O)O2)C3(C)C)no1 (stereo unspecified),-1.4%,2%,5,-2%
CC(C)c1nc(C(N)=O)c2[nH]c(=O)n(-c3ccc(F)cc3)c2n1,-9.4%,10%,/,-4%
CCCS(=O)(=O)N1CCCC(C(=O)NCCCN(CC)c2cccc(C)c2)C1 (stereo unspecified),-0.7%,25%,-3,-1%
S=C(Nc1ccccc1Cl)N(Cc1cccnc1)Cc1ccco1,-0.1%,-11%,-11,-1%
Cc1ccc(C(=O)OCC(=O)c2ccc(S(=O)(=O)N3CCCCC3)cc2)o1,-2.3%,-5%,/,/
N/C(=N\N=Cc1ccc2c(c1)OCO2)NN=Cc1ccc2c(c1)OCO2,-2.8%,2%,/,/
COc1ccc(/C(O)=C2/C(=O)C(=O)N(Cc3cccnc3)C2c2ccccn2)cc1 (stereo unspecified),0.0%,-21%,-1,-13%
Cc1cc([N+](=O)[O-])ccc1-c1ccc(/C=N/NC(=O)Cc2ccccc2)o1,?,?,2,-13%
O=Cc1cn(CCC(=O)O)nc1-c1cccc(Cl)c1,1.5%,-1%,1,-2%
CCn1c(C)nnc1SCC(=O)Nc1cccc(C(F)(F)F)c1,0.0%,-4%,/,0%
C=CCn1c(-c2ccccc2)n[nH]c1=S,-3.1%,0%,-2,0%
CCN1CC(CN(C)Cc2nc(-c3ccc(OC)c4ccccc34)oc2C)CC1=O (stereo unspecified),-1.5%,-13%,0,0%
Cc1cccc(CSc2nnc(CCCCCNC(=O)OC(C)(C)C)o2)c1,-0.8%,-2%,-7,8%
COc1ccc(/C=N/n2c(-c3ccccc3)n[nH]c2=S)cc1,-3.4%,11%,/,-3%
CCOC(=O)N1CCN(C(=O)c2cccn3c(=O)c4cc(Br)ccc4nc23)CC1,?,-13%,1[21.1 µM],0%
Fc1ccc(-c2nc3c(Cl)cc(C(F)(F)F)cn3c2Cl)cc1,-1.3%,5%,-6,-38%
CC(C)(C)C1CCC(=NOC(=O)c2ccc(F)cc2)CC1 (stereo unspecified),-1.3%,-25%,-6,0%
NC(=O)C1CCN(C(=O)c2cc(S(=O)(=O)N3CCN(c4ccccc4)CC3)ccc2Cl)CC1,-1.3%,25%,/,/
O=C1c2ccc3c4c(ccc(c24)C(=O)N1CCCCO)C(=O)N(CCCCO)C3=O,-0.1%,7%,4,?
O=C(COC(=O)c1c2c(nc3ccccc13)CCCC2)c1cccs1,-3.2%,3%,-9,7%
COc1ccc(NC(=O)COC(=O)c2ccc3ccccc3n2)c(OC)c1,1.3%,1%,/,/
COc1ccc(C2C(C(=O)OCC(=O)NC(C)(C)C)CCC(=O)N2c2ccc(C)cc2)cc1OC (stereo unspecified),-0.7%,-16%,6,0%
CN1C(=O)c2cccc3c(S(=O)(=O)Nc4ccc(O)c(C(=O)O)c4)ccc1c23,3.5%,-8%,/,-3%
CC(C)CC(=O)N1CCC(N2CCN(c3ccccc3)CC2)CC1,0.1%,3%,-2,-5%
CCCc1nn(C)c2c1C(c1ccncc1)C(C#N)=C(N)O2 (stereo unspecified),0.3%,-5%,-6,-3%
O=C(Nc1ccc(CN2CCCCC2)cc1)c1ccc(Br)o1,-0.4%,13%,-8,-33%
COC(=O)Cc1c(O)ccn(CCc2c[nH]c3ccccc23)c1=O,8.2%,2%,11,-5%
CC(NC(=O)CCSCc1ccccc1F)c1ccccc1 (stereo unspecified),-0.2%,1%,/,-48%&-35%
Cc1cc(C)c(NC(=O)CN2C(=O)NC3(CCOc4ccccc43)C2=O)c(C)c1 (stereo unspecified),-3.8%,10%,0,-17%
O=C(COC(=O)c1ccccc1Br)NCCC1=CCCCC1,1.1%,?,-10,-31%
O=C(Nc1ccccc1F)c1ccc(CNS(=O)(=O)c2cccc(C(F)(F)F)c2)cc1,2.2%,-4%,2,0%
CCN1CCN(c2ccc(S(=O)(=O)N3CCCCC3)cc2NC(=O)COc2ccc(F)cc2Cl)CC1,-3.4%,-12%,/,18%
Cc1ccc(S(=O)(=O)N2CCOCC2)cc1C(=O)NCC1CCCO1 (stereo unspecified),2.0%,14%,/,2%
COc1ccc(-c2nc(CSCC(=O)NC3CCN(Cc4ccccc4)CC3)c(C)o2)cc1OC,?,6%,/,6%
Cc1ccc(C)c(N2CCN(C(=O)CCCCn3c(=O)[nH]c4ccccc4c3=O)CC2)c1,-1.1%,0%,-6,-2%
CC1CN(S(=O)(=O)c2cccc(-c3cn4cccnc4n3)c2)CC(C)O1 (stereo unspecified),/,/,?,0%
COc1cccc(NC(=O)CN(C)C(=O)c2cc(-c3ccc(C)o3)nc3ccccc23)c1,-1.5%,-10%,/,/

# Not a retest: an excerpt of the list.
SMILES,Rango complex inh,Rango release inh,GLA inh pH 4.5,miR-21 FLuc
Cc1ccc(C)c(N2CCN(C(=O)CCCCn3c(=O)[nH]c4ccccc4c3=O)CC2)c1,-1.1%,0%,-6,-2%
CC1CN(S(=O)(=O)c2cccc(-c3cn4cccnc4n3)c2)CC(C)O1 (stereo unspecified),/,/,?,0%
COc1cccc(NC(=O)CN(C)C(=O)c2cc(-c3ccc(C)o3)nc3ccccc23)c1,-1.5%,-10%,/,/

# Rewritten with values ahead of the structure: entries from further up
Rango complex inh	Rango release inh	GLA inh pH 4.5	miR-21 FLuc	smiles
-3.8%	10%	0	-17%	Cc1cc(C)c(NC(=O)CN2C(=O)NC3(CCOc4ccccc43)C2=O)c(C)c1 (stereo unspecified)
1.1%	?	-10	-31%	O=C(COC(=O)c1ccccc1Br)NCCC1=CCCCC1
2.2%	-4%	2	0%	O=C(Nc1ccccc1F)c1ccc(CNS(=O)(=O)c2cccc(C(F)(F)F)c2)cc1

# Going on with the list.
SMILES,Rango complex inh,Rango release inh,GLA inh pH 4.5,miR-21 FLuc
COCCN(C(=O)c1cc(Cl)nc2ccccc12)c1c(N)n(Cc2ccccc2)c(=O)[nH]c1=O,3.0%,7%,/,/
CC(C)(C)c1cc[n+](/C(C(=S)NC2CC2)=C(/[O-])c2ccc(Cl)s2)cc1,2.3%,8%,2,-13%
COc1ccc(S(=O)(=O)N2CC(O)CC2C(=O)Nc2cccnc2)cc1 (stereo unspecified),-1.7%,-6%,-5,-1%
Cc1ccc(CNC(=O)c2cnc(-c3ccccn3)nc2C(F)(F)F)cc1,-1.8%,3%,7,-13%
CSc1cccc(NC(=O)CCCOc2ccc(Cl)cc2Cl)c1,-1.0%,-5%,-16,-6%
CCS(=O)(=O)N1CCC(C(=O)O)CC1,2.2%,14%,-4,-2%
CN(CC(=O)O/N=C(\N)c1ccccn1)S(=O)(=O)c1cc(Cl)ccc1Cl,2.8%,-10%,-5,-54%
COC(=O)C1=C[C@@H](C(=O)OC)[C@@H]2C3=C(C(=O)[C@@]2(C)NC(=O)c2ccccc2)[C@H](c2ccccc2)[C@@H]2C(=O)NC(=O)[C@@H]2[C@@H]3C1,-2.6%,-14%,/,/
COc1cccc(CN(C)C(=O)c2cccc(S(=O)(=O)N3CCN(c4ccc(F)cc4)CC3)c2)c1OC,0.3%,10%,/,/
COc1ccc(-c2n[nH]c(C)c2-c2ccc(Cl)cc2)c(O)c1OC,-0.4%,-6%,-5,29%
O=S1(=O)CCN(Cc2ccc(F)cc2)CC1,-4.3%,5%,?,-1%
CCCCc1nc(NCc2ccccc2)c(C#N)c2c1COC(C)(C)C2,0.3%,0%,0,-2%
CC(=O)c1nc(N2C(=O)CC(Cc3ccc(C)cc3)C2=O)sc1C (stereo unspecified),-0.6%,6%,-11,0%
O=C(c1ccccc1)c1c[nH]c2cc3c(cc2c1=O)OCO3,/,/,-4,-11%
CCOc1ccc(S(=O)(=O)N(C)c2ccc(OCC(=O)NCc3ccc(C(=O)OC)cc3)cc2)cc1,-4.1%,1%,-4,-2%
O=S(=O)(NCc1ccc(Cl)cc1)c1cnc[nH]1,-2.3%,1%,1,-8%
CCN(CC(=O)NC(C)(C)C)C(=O)CN1c2cccc3cccc(c23)S1(=O)=O,-0.5%,-9%,/,0%
CCOC(=O)c1sc2nc3c(cc2c1N)COC(C(C)C)C3 (stereo unspecified),-3.3%,-5%,4,-60%
COc1ccccc1CC(NC(C)=O)C(=O)NC1CCN(C(=O)Nc2ccccc2Cl)CC1 (stereo unspecified),0.0%,9%,-27,-4%
N#C/C(C(=O)N1CCOCC1)=c1\s/c(=C/c2ccncc2)c(=O)n1-c1ccccc1,/,/,5,0%

# Whole records, quoted from the list. Order of values: Rango complex inh, Rango release inh, GLA inh pH 4.5, miR-21 FLuc
# COc1ccc(S(=O)(=O)N2CC(O)CC2C(=O)Nc2cccnc2)cc1 (stereo unspecified) in the list: -1.7%, -6%, -5, -1%
# CSc1cccc(NC(=O)CCCOc2ccc(Cl)cc2Cl)c1 in the list: -1.0%, -5%, -16, -6%
# CCOC(=O)c1sc2nc3c(cc2c1N)COC(C(C)C)C3 (stereo unspecified) in the list: -3.3%, -5%, 4, -60%

# More results follow:
SMILES,Rango complex inh,Rango release inh,GLA inh pH 4.5,miR-21 FLuc
CCOc1cccc(N)c1,0.2%,6%,/,/
CCOC(=O)c1c(C)nc2sc(C(=O)Nc3ccccc3)c(N)c2c1-c1ccc(OC)cc1,?,?,-8,17%
COc1ccccc1CNS(=O)(=O)c1ccc2c(c1)N(C(C)=O)CCO2,12%,-10%,/,5%
CCOC(=O)Cn1cc(/C=C(/C#N)C(=O)NC(C)C)c2ccccc21,-4.5%,-10%,-30,-6%
CCOC(=O)C(NCCOC)(NC(C)=O)C(F)(F)F (stereo unspecified),?,-16%,-1,4%
N#CNC1=NCN(CCc2ccccc2)CN1,1.8%,29%,3,-2%
O=C(CCN1C(=O)S/C(=C/c2ccc(F)cc2)C1=O)Nc1ccc(O)c(C(=O)O)c1,-0.3%,9%,/,-1%
COc1ccc(N2CCN(CCNC(=O)C3CC(=O)N(C4CCCC4)C3)CC2)cc1 (stereo unspecified),0.9%,0%,6,2%
Cc1ccc(NC(=O)Cn2nnc(-c3ccccc3NC(=O)c3cccs3)n2)cc1,-2.7%,-5%,-6,24%
Cc1ccc(C)c(NC(=O)C(CC(=O)O)C2CCCO2)c1 (stereo unspecified),-2.5%,2%,/,-2%
O=C1CN(C(=O)c2cc3ccccc3oc2=O)C(c2ccccc2)c2cc(F)ccc2N1 (stereo unspecified),1.2%,28%,-14,-19%
CC(C)(C)NC(=O)C(c1ccc(O)cc1)N(Cc1ccco1)C(=O)CCC(=O)Nc1ccccn1 (stereo unspecified),-0.7%,-7%,/,5%
COc1cccc(CN(C)C(=O)c2cc(COc3ccc(-n4cncn4)cc3)on2)c1,2.6%,0%,/,24%
COCCNC(=O)c1cc2c(=O)n3cccc(C)c3nc2n1C,-5.1%,-15%,14,1%
COc1ccc(C(=O)NCC(=O)NCc2cc(=O)n(C)c(=O)n2C)cc1,0.9%,-13%,/,2%
COc1ccc(C(=O)N/C(=C/c2cccs2)c2nc3ccccc3[nH]2)cc1OC,-0.8%,-7%,-10,-17%
Cc1[nH]c2ccc(C(=O)N3CCC(C(N)=O)CC3)cc2c1C,-0.2%,1%,/,/
COc1ccc(N2CC(C(=O)Nc3ccc(S(=O)(=O)Nc4nc(C)cc(C)n4)cc3)CC2=O)cc1 (stereo unspecified),5.6%,-18%,-17,-6%
COc1ccc(OCCSc2nnc(CCNC(=O)c3ccc(Cl)c(Cl)c3)n2C)cc1,-0.9%,-13%,-9,1%
Cc1nc(N2CCN(Cc3ccccc3)CC2)nc2c1C(=O)CC(c1ccco1)C2 (stereo unspecified),0.2%,-7%,-11,-8%
O=c1cc(CN2CCCc3ccccc32)nc2sccn12,1.6%,0%,9,-14%
Cc1cccc(OCCCOc2cccc3cccnc23)c1C,2.9%,-1%,3,-26%
